HSV replic up = HSV replication enhancement | HSV replication augmentation in cells, fold increase | maximum fold increase | 0.005% of 220,000 active;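 active means peak rise of 1.5-fold or more in the series; tested in PC3 cells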;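 further: first round at 10 µM; read as green reporter fluorescence; hits show the peak of a series up to 25 µM; 1 = signal of infected wells without compound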
RGS16-Gao HTS = modulates binding between human RGS16 and Galphao | O15492+P09471 | bead-based flow cytometry RGS16-Galphao binding, fluorescence; actives lie on both sides | 0.38% of 220,000 active | AID 1441 | binding response (% of control), % at 10 µM;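 active means below 25% or above 175%, edge rows of some plates excepted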;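 further: Galphao activated by GDP with aluminum fluoride before binding; 100% = wells without compound and 0% = beads without RGS; some results beyond the cut were filed as inactive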
Target sequence (O15492 whole entry, looked up): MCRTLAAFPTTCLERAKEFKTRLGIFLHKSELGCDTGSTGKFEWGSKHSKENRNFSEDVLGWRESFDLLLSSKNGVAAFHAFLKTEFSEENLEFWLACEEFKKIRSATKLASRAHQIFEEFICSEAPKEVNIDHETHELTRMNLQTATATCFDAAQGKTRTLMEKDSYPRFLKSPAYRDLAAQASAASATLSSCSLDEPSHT
Target sequence (P09471 whole entry, looked up): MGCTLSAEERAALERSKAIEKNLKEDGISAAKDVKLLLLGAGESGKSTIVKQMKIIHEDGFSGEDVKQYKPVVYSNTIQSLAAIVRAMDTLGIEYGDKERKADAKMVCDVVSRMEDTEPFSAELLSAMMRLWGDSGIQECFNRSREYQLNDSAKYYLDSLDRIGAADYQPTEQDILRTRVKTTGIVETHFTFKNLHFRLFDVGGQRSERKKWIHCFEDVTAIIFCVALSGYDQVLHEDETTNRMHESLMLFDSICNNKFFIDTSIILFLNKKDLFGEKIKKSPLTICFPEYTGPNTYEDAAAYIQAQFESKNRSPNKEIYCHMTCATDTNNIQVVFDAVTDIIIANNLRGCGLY
GALR2 agonist = agonists of human galanin receptor 2 (GALR2) | O43603 | GALR2-expressing cells, agonist activation read-out | activation, %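 (tested at 5 µM)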 | 0.48% of 140,000 active;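 active means above mean plus 3 SD of all compounds, about 5% in these data, not always enough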;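 further: 0% = vehicle buffer wells and 100% = reference agonist at full effect; tested in CHO reporter cells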
Target sequence (O43603 whole entry, looked up): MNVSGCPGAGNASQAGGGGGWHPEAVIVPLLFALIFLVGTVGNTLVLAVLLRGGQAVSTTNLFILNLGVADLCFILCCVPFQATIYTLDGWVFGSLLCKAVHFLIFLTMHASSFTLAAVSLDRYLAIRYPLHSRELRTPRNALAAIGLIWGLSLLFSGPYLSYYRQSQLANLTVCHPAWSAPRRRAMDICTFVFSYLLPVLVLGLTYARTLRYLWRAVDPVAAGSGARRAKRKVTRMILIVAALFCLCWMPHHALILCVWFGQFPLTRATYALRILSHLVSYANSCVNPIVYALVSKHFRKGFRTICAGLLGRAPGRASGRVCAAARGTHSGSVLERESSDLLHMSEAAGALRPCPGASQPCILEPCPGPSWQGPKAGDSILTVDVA
INS promoter inh = TRM-6 insulin promoter activity inhibition; TRM-6 cells (human fetal islet line), insulin promoter-eGFP reporter, imaging; reporter expression induced with tamoxifen; 0.9% of 130,000 active; AID 1273; inhibition, % at 2 µM;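 active means inhibition above the mean plus 3 SD, with well images judged a real hit on visual review, cut at about 60% in these data, passing the limit was not always enough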
PKD1 kinase inh = PKD1 (human) kinase inhibition. Q15139. PKD1 kinase fluorescence polarization assay. inhibition, %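 (about 10 µM by stock and volumes)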. 0.056% of 200,000 active. AID 797;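 active means inhibition of 50% or more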;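 further: controls were vehicle for no effect and a reference inhibitor for full effect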
INS promoter inh cell count = recorded beside INS promoter inh, whose call it bears; normalized cell count, %; measured here: cell count, toxicity; reference of the scale not given here;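 cells exposed to compound for 48 h; stained nuclei by imaging scaled within each plate; lower means fewer cells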
HSV replic up primary fold = recorded beside HSV replic up, whose call it bears; fold increase; compound at 10 µM; measured here: primary screen fold increase 10 uM; tested in PC3 cells;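 GFP signal in the first replicate; 1 = infected wells without compound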
Active calls of the source: *; [ ] = another dose, or the depositor's remark.

`Cc1ccccc1OCC(=O)N=Nc1c(O)n(C)c2ccccc12` gave HSV replic up inactive, RGS16-Gao HTS 101 and HSV replic up primary fold 0.96.
`COc1ccc(Cc2nc(-c3ccc(Br)o3)no2)cc1OC` gave HSV replic up inactive, RGS16-Gao HTS 105, GALR2 agonist -1.7, PKD1 kinase inh -11 and HSV replic up primary fold 0.99.
`COc1cccc(C2c3c(oc4ccc(F)cc4c3=O)C(=O)N2CCN2CCOCC2)c1OC` (stereo unspecified) gave HSV replic up inactive, RGS16-Gao HTS 109, GALR2 agonist -0.7, PKD1 kinase inh 7 and HSV replic up primary fold 0.82.
`Fc1ccccc1N1CCN(c2nc3ccccc3n3nnnc23)CC1` gave HSV replic up inactive, RGS16-Gao HTS 100, GALR2 agonist -0.6, PKD1 kinase inh -2 and HSV replic up primary fold 1.
COc1cc(/C=N/NC(=O)c2cc(-c3cccn3C)n[nH]2)cc(OC)c1OC was read as HSV replic up inactive, RGS16-Gao HTS 97, GALR2 agonist -1.5, PKD1 kinase inh -20 and HSV replic up primary fold 0.97.
Screening O=c1c2[nH]c3ccc(Cl)cc3c2ncn1CCN1CCCCC1 returned HSV replic up inactive, RGS16-Gao HTS 107, GALR2 agonist -0.9, INS promoter inh -16, PKD1 kinase inh -14, INS promoter inh cell count 89 and HSV replic up primary fold 0.93.
For Cn1c(SCC(=O)Nc2ccccc2F)nnc1-c1cccnc1 the results were HSV replic up inactive, RGS16-Gao HTS 104, GALR2 agonist -0.6, INS promoter inh 0, PKD1 kinase inh 0, INS promoter inh cell count 34 and HSV replic up primary fold 0.96.
Screening Cn1c(/C(C#N)=C/c2ccc(O)cc2)nc2ccccc21 returned HSV replic up inactive, RGS16-Gao HTS 103 and HSV replic up primary fold 1.1.
Screening O=C(NNC(=O)c1cccs1)Nc1cccc(Cl)c1 returned RGS16-Gao HTS 100, GALR2 agonist -0.3, INS promoter inh 34, PKD1 kinase inh -10 and INS promoter inh cell count 48.
CC(C)(C)c1nc(Sc2ccc([N+](=O)[O-])cn2)n[nH]1 was read as HSV replic up inactive, RGS16-Gao HTS 53 and HSV replic up primary fold 0.92.
`Cc1nn(S(=O)(=O)c2ccc([N+](=O)[O-])cc2)c(C)c1Sc1ccccc1` gave HSV replic up inactive, GALR2 agonist -3.2, INS promoter inh 33, PKD1 kinase inh -15, INS promoter inh cell count 126 and HSV replic up primary fold 0.84.
For O=C1NC(Cc2ccccc2)C(=O)N1Cc1cc([N+](=O)[O-])cc2c1OCOC2 (stereo unspecified) the results were HSV replic up inactive, RGS16-Gao HTS 108, INS promoter inh -50, PKD1 kinase inh 5, INS promoter inh cell count 145 and HSV replic up primary fold 0.79.
For COc1ccc(Nc2nnc(SCC(=O)Nc3ccc4[nH]c(=O)[nH]c4c3)s2)cc1 the results were HSV replic up inactive, RGS16-Gao HTS 100, PKD1 kinase inh -1 and HSV replic up primary fold 1.1.
Screening Cc1ccc(NC(=O)CCSc2ccccn2)cc1 returned HSV replic up inactive, RGS16-Gao HTS 149, GALR2 agonist -0.6, INS promoter inh -9, PKD1 kinase inh -1, INS promoter inh cell count 101 and HSV replic up primary fold 0.95.
Screening CC(=O)N1CCN(S(=O)(=O)c2cccc(C(=O)NC3CCC(C)CC3)c2)CC1 (stereo unspecified) returned HSV replic up inactive, RGS16-Gao HTS 100, INS promoter inh -75, PKD1 kinase inh 0, INS promoter inh cell count 59 and HSV replic up primary fold 0.99.
Screening N/C(=N/OC(=O)c1ccc(Cl)cc1)c1ncc([N+](=O)[O-])s1 returned HSV replic up inactive, RGS16-Gao HTS 96 and HSV replic up primary fold 0.72.
`O=C(c1ccc2c(c1)OCO2)N1CCC2(CC1)Oc1ccc(Cl)cc1C(=O)C21CC(c2ccc(Cl)cc2)=NO1` (stereo unspecified) gave HSV replic up inactive, RGS16-Gao HTS 108 and HSV replic up primary fold 0.79.
For Cc1nn(-c2ccccc2)c2nc(C(Cl)(Cl)Cl)[nH]c(=O)c12 the results were HSV replic up inactive, RGS16-Gao HTS 99 and HSV replic up primary fold 0.92.
`O=C(O)c1cc(NCc2cccs2)ccc1N1CCOCC1` gave HSV replic up inactive, RGS16-Gao HTS 100, GALR2 agonist -1.7, PKD1 kinase inh -13 and HSV replic up primary fold 1.1.
`CCC(=O)N1CCN(c2ccc(NC(=O)c3ccc([N+](=O)[O-])o3)cc2)CC1` gave HSV replic up inactive, RGS16-Gao HTS 92, PKD1 kinase inh -3 and HSV replic up primary fold 0.57.
For CCC1Sc2ccccc2N(CC(=O)NCCC(C)C)C1=O (stereo unspecified) the results were HSV replic up inactive, RGS16-Gao HTS 101, GALR2 agonist -1.4, INS promoter inh 12, PKD1 kinase inh -10, INS promoter inh cell count 94 and HSV replic up primary fold 0.92.
`CC12CCC(C(=O)Nc3ccccc3N3CCOCC3)(CC1=O)C2(C)C` (stereo unspecified) gave HSV replic up inactive, RGS16-Gao HTS 109, GALR2 agonist -0.9, INS promoter inh -8, PKD1 kinase inh 3, INS promoter inh cell count 108 and HSV replic up primary fold 1.
For Cc1ccc(NC(=S)NCCc2c[nH]c3ccccc23)c(C)c1 the results were HSV replic up inactive, RGS16-Gao HTS 106 and HSV replic up primary fold 1.1.
`O=C1CS/C(=N/N=C/c2c[nH]c3ccccc23)N1` gave HSV replic up inactive, RGS16-Gao HTS 176*[activator] and HSV replic up primary fold 1.1.
CCn1c(=O)cc(SCC(=O)NCCN2CCN(Cc3ccccc3)CC2)c2ccccc21 was read as HSV replic up inactive, RGS16-Gao HTS 95, GALR2 agonist -0.8, INS promoter inh -86, PKD1 kinase inh 3, INS promoter inh cell count 74 and HSV replic up primary fold 1.3.
For COc1ccccc1NC(=O)CSc1nnc(C2CCCCC2)n1C the results were HSV replic up inactive, RGS16-Gao HTS 94, GALR2 agonist 0.2, INS promoter inh -62, PKD1 kinase inh 7, INS promoter inh cell count 45 and HSV replic up primary fold 0.88.
[O-]c1c[n+](-c2ccc(-[n+]3cc([O-])on3)cc2)no1 was read as HSV replic up inactive, RGS16-Gao HTS 98, PKD1 kinase inh 0 and HSV replic up primary fold 1.1.
`O=C(c1ccc(C(F)(F)F)cc1)C1CCCN(C(=O)c2csnn2)C1` (stereo unspecified) gave HSV replic up inactive, RGS16-Gao HTS 108, PKD1 kinase inh 1 and HSV replic up primary fold 1.1.
`CC(=O)Nc1ccc(N2C(=O)c3cccc(NC(C)=O)c3C2=O)cc1` gave HSV replic up inactive, RGS16-Gao HTS 109, GALR2 agonist -0.7, INS promoter inh 7, PKD1 kinase inh -1, INS promoter inh cell count 218 and HSV replic up primary fold 0.88.
Screening O=C(Cn1cnc2ccccc2c1=O)Nc1nnc(SCc2ccc(Cl)cc2)s1 returned HSV replic up inactive, RGS16-Gao HTS 105 and HSV replic up primary fold 0.93.

Filtered by structure, the entries above with a thiophene ring, fused or not
Screening O=C(NNC(=O)c1cccs1)Nc1cccc(Cl)c1 returned RGS16-Gao HTS 100, GALR2 agonist -0.3, INS promoter inh 34, PKD1 kinase inh -10 and INS promoter inh cell count 48.
`O=C(O)c1cc(NCc2cccs2)ccc1N1CCOCC1` gave HSV replic up inactive, RGS16-Gao HTS 100, GALR2 agonist -1.7, PKD1 kinase inh -13 and HSV replic up primary fold 1.1.

Later entries.
Screening CCNc1nc(NCC)nc(Oc2ccc(N)cc2)n1 returned HSV replic up inactive, RGS16-Gao HTS 99, GALR2 agonist -0.8, INS promoter inh 7, PKD1 kinase inh -1, INS promoter inh cell count 123 and HSV replic up primary fold 0.94.
`Cc1sc2ncnc(-n3nnc4ccccc43)c2c1C` gave HSV replic up inactive, RGS16-Gao HTS 103, PKD1 kinase inh -5 and HSV replic up primary fold 0.97.
Screening CCOC(=O)CNC(=O)c1ccc(Cl)s1 returned HSV replic up inactive, RGS16-Gao HTS 105, PKD1 kinase inh -7 and HSV replic up primary fold 1.
For COc1cc(C(=O)NCc2ccco2)c(Br)c(OC)c1OC the results were HSV replic up inactive, RGS16-Gao HTS 101, GALR2 agonist -1.2, INS promoter inh 40, PKD1 kinase inh 1, INS promoter inh cell count 84 and HSV replic up primary fold 0.89.
O=C(NCc1nc2ccccc2[nH]1)C1=C[C@@H](c2csc3ccccc23)C[C@@H](OCc2ccc(CO)cc2)O1 was read as RGS16-Gao HTS 101 and PKD1 kinase inh 5.
For CCOC(=O)c1ccc(NC(=S)N2CCSC2c2c(F)cc(F)cc2F)cc1 (stereo unspecified) the results were HSV replic up inactive, RGS16-Gao HTS 106, GALR2 agonist 0.0, PKD1 kinase inh -3 and HSV replic up primary fold 1.
For CN(c1ccccc1)S(=O)(=O)c1cccc(NC(=O)c2cc3ccccc3oc2=O)c1 the results were HSV replic up inactive, RGS16-Gao HTS 75 and HSV replic up primary fold 1.
Screening COCCN1CSC(=S)N(Cc2ccco2)C1 returned HSV replic up inactive, RGS16-Gao HTS 97, GALR2 agonist 0.1, INS promoter inh 30, PKD1 kinase inh -10, INS promoter inh cell count 115 and HSV replic up primary fold 1.1.
For NC(=O)CSc1nnc(Cc2csc(Nc3ccccc3)n2)n1Cc1ccccc1 the results were HSV replic up inactive, RGS16-Gao HTS 103, GALR2 agonist -2.2, INS promoter inh 15, PKD1 kinase inh -7, INS promoter inh cell count 103 and HSV replic up primary fold 1.2.
O=C(/C=C/c1ccccc1)c1ccccn1 was read as HSV replic up inactive, RGS16-Gao HTS 100, GALR2 agonist -3.0, INS promoter inh 39, PKD1 kinase inh -4, INS promoter inh cell count 117 and HSV replic up primary fold 0.97.
For CCOc1ccc(/C=N/NC(=S)NC2CC3CC2C2C=CCC32)cc1 (stereo unspecified) the results were HSV replic up inactive, RGS16-Gao HTS 122 and HSV replic up primary fold 1.
For COc1ccc(N=C2SCC(c3ccc([N+](=O)[O-])cc3)=NN2CCO)cc1 the results were HSV replic up inactive, RGS16-Gao HTS 100 and HSV replic up primary fold 0.87.
Screening N#Cc1cc2c(nc1SCc1cccnc1)CCCC2 returned HSV replic up inactive, RGS16-Gao HTS 99, GALR2 agonist -0.6, INS promoter inh -15, PKD1 kinase inh -3, INS promoter inh cell count 120 and HSV replic up primary fold 0.95.
`O=C(NCc1ccco1)c1cccc(NS(=O)(=O)c2cccc(F)c2)c1` gave HSV replic up inactive, RGS16-Gao HTS 99, GALR2 agonist 0.1, INS promoter inh 4, PKD1 kinase inh -1, INS promoter inh cell count 168 and HSV replic up primary fold 0.94.
For CCc1ccccc1NC(=O)NC1CCCCC1 the results were HSV replic up inactive, RGS16-Gao HTS 99, GALR2 agonist -2.6, INS promoter inh -6, PKD1 kinase inh 8, INS promoter inh cell count 128 and HSV replic up primary fold 1.
Screening CC(=O)Nc1sc2c(c1C(c1ccncc1)N1CCOCC1)CCCC2 (stereo unspecified) returned HSV replic up inactive, RGS16-Gao HTS 106, PKD1 kinase inh -3 and HSV replic up primary fold 0.96.
Screening COc1ccc(C(=O)OCCN2CCOCC2)cc1 returned HSV replic up inactive, RGS16-Gao HTS 105, GALR2 agonist -0.8, INS promoter inh -6, PKD1 kinase inh 4, INS promoter inh cell count 104 and HSV replic up primary fold 0.94.
`O=C(c1ccc(Br)cc1)N(Cc1nc2ccccc2c(=O)[nH]1)C1CCCC1` gave HSV replic up inactive, RGS16-Gao HTS 105, PKD1 kinase inh -4 and HSV replic up primary fold 0.95.
For CC(=O)NC(Cc1ccccc1C)C(=O)NC1CCN(c2nnnn2-c2ccccc2)CC1 (stereo unspecified) the results were HSV replic up inactive, RGS16-Gao HTS 101 and HSV replic up primary fold 0.88.
Screening CSc1ccccc1NC(=O)N1CCC(CO)(CC2CCCCO2)CC1 (stereo unspecified) returned HSV replic up inactive, RGS16-Gao HTS 94, INS promoter inh -36, PKD1 kinase inh 3, INS promoter inh cell count 99 and HSV replic up primary fold 0.99.
Screening COc1ccc(N=CC2=C(O)c3ccccc3C2=O)cc1 returned HSV replic up inactive, RGS16-Gao HTS 7, GALR2 agonist -1.9, INS promoter inh 19, PKD1 kinase inh -2, INS promoter inh cell count 88 and HSV replic up primary fold 0.96.
`Cc1cccc(NCC(=O)N/N=C/c2cccc(Br)c2)c1` gave HSV replic up inactive, RGS16-Gao HTS 88, INS promoter inh 3, PKD1 kinase inh -4, INS promoter inh cell count 78 and HSV replic up primary fold 0.79.
Screening COc1ccccc1N1CCN(CC(=O)c2c(N)n(C)c(=O)n(C)c2=O)CC1 returned HSV replic up inactive, RGS16-Gao HTS 100, PKD1 kinase inh -1 and HSV replic up primary fold 0.84.

Part of the list above in order of number of heavy atoms, ascending.
Screening Cn1c(/C(C#N)=C/c2ccc(O)cc2)nc2ccccc21 returned HSV replic up inactive, RGS16-Gao HTS 103 and HSV replic up primary fold 1.1.
COc1cc(/C=N/NC(=O)c2cc(-c3cccn3C)n[nH]2)cc(OC)c1OC was read as HSV replic up inactive, RGS16-Gao HTS 97, GALR2 agonist -1.5, PKD1 kinase inh -20 and HSV replic up primary fold 0.97.
For CN(c1ccccc1)S(=O)(=O)c1cccc(NC(=O)c2cc3ccccc3oc2=O)c1 the results were HSV replic up inactive, RGS16-Gao HTS 75 and HSV replic up primary fold 1.

High-throughput results as filed in PubChem BioAssay.
